# gsp ag: gsp mutant agonism. gsp mutant cells, cAMP HTRF, 30 min; control for the full effect not named in the record. Potency, µM (titrated, usually from 76.9 µM), for inactives: at the highest dose activation (cAMP increase), most hits filed as activators. 340,000 compounds, 0.13% hits. AID 624287; active = well fitted activation curve with a large enough effect; inconclusive = small, poorly fitted or top-dose-only effect, or another doubt; inactive = no such curve, though single readings can be large or run the other way; cell line not stated here;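 further: phosphodiesterase inhibitor Ro 20-1724 added with compounds to block cAMP breakdown; potency means the concentration at half of the fitted maximal effect; nearly all actives have a fitted effect of over 60% in size; about a fifth of the inactives were tested at one dose only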
#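 Cells in DMEM/10% FBS with G418 were pretreated with compounds in DMSO plus […] (300 uM stock) for 30 min at 37C. cAMP was measured by HTRF (cAMP-d2 plus anti-cAMP antibody-K) after 30 min at room temperature.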
# ClpP mod: qHTS Assay for Activators of ClpP; ATP-dependent Clp protease proteolytic subunit (Bacillus subtilis (strain 168)), P80244; purified B. subtilis ClpP, FRET peptide cleavage, 20 min; Potency, µM (titrated, usually from 57.5 µM), for the others: at the top dose activity change, negative = active; 340,000 compounds, 1.9% hits; AID 651965, 2013; active = well fitted falling curve with a large enough effect; inconclusive = small, poorly fitted or top-dose-only effect; inactive = no such curve, though single readings can be large or run the other way; further: potency means the concentration at half of the fitted maximal effect; the source files actives as falling curves though it sought activators and does not explain the sign; nearly all actives have a fitted effect of over 65% in size; many hits overshoot -100%
# Target sequence (P80244 whole entry, looked up): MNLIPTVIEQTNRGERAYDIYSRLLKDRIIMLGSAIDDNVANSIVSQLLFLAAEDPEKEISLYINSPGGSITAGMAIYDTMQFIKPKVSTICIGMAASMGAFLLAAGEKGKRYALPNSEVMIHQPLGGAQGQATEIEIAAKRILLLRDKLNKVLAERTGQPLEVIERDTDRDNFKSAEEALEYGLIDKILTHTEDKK
#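 Buffer: 100 mM Tris/HCl pH8, 100 mM KCl, 0.05% low protease BSA, 2.5% glycerol, 0.01% Tween-20. ClpP 10 microg/mL final; 20 min RT; delta FRET normalized to ADEP and DMSO controls.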
# gsp antagonist: gsp mutant antagonism; gsp-mutant cells, cAMP HTRF, 30 min; control for the full effect not named in the record; Potency, µM (series often up to 76.9 µM), without a hit: at the highest dose activity change, negative = inhibition, most hits filed as inhibitors; 340,000 compounds, 0.4% hits; active = falling curve of any shape with a large fitted effect; inconclusive = falling curve, mostly with a smaller effect; inactive = flat or rising curve; cell line not stated here;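 further: intracellular cAMP measured with PDE inhibitor Ro 20-1724 present during compound exposure; potency means the concentration at half of the fitted maximal effect; on the % scale 0 is the no-effect control and ±100 the full control effect; nearly all actives have a fitted effect of over 65% in size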
#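 HTRF cAMP read-out (cAMP-d2 plus anti-cAMP antibody-K in lysis buffer, 30 min RT). Before lysis, cells are exposed to compounds with […] for 30 min at 37C in DPBS containing Ca/Mg, BSA and Tween 20.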
# Menin MLL FP FL: inhibitors of human menin-MLL interaction, wild-type MLL peptide; FP activity change, % at 61.4 µM; Fluorescence polarization, fluorescein-MLL peptide displacement from menin; AID 1766; 290,000 tested, under 10 active; inconclusive = falling polarisation curve, or a change in total fluorescence; inactive = total fluorescence flat and polarisation flat or rising; no compound was filed as active; the % refers to the polarisation; negative = inhibition;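 further: % of control where 0% means no effect; inhibitors lower the polarisation; unlabelled MLL peptide was the positive control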
# PINK1 modulator: PINK1 expression modulation; 410,000 compounds, 0.2% hits; Potency, µM (doses to about 76.6 µM), without a hit: at the highest dose activation (PINK1 increase), most hits filed as activators; PINK1 immunofluorescence, high-content cytometry, 24 h; AID 624263; active = well fitted activation curve with a large enough effect; inconclusive = small, poorly fitted or top-dose-only effect; inactive = flat fitted curve, though single readings scatter; cell line not stated here;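 further: potency means the concentration at half of the fitted maximal effect; % of control where 0% means no effect; nearly all actives have a fitted effect of over 65% in size; a mitochondrial uncoupler was the plate control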
#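 Decision-based qHTS: stable cells, 24 h exposure to five compound concentrations, CCCP as control. Fixed cells stained for PINK1 plus nuclear, mitochondrial and cell markers, cytometer read.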
# D2 agonist: human D2 receptor agonism in beta-arrestin assay | P14416 | DiscoveRx PathHunter D2 beta-arrestin, luminescence, 90 min; 100% = 57 uM dopamine signal | activation, % (concentration not given with the values) | 360,000 compounds, 0.084% hits | AID 624465; in the data active = activation above about 40%; inconclusive = about 15% to 40%; inactive = below about 15%; further: the text of the record calls up to 30% inactive
# Target sequence (P14416 whole entry, looked up): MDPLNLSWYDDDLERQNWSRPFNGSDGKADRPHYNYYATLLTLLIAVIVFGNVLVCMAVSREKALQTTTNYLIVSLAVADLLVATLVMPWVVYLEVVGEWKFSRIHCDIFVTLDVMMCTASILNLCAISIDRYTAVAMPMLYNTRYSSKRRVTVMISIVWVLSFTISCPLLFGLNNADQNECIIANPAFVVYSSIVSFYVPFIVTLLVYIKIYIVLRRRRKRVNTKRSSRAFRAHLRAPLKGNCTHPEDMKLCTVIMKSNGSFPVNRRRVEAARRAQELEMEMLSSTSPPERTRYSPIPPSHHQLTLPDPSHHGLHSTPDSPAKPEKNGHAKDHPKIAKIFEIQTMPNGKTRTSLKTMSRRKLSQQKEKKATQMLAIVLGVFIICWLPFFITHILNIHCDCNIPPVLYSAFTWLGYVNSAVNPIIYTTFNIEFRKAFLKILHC
#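 Agonist mode: compounds alone added to overnight-plated D2 PathHunter cells for 90 min at 37 C, with 57 uM final dopamine (EC100) defining full response. Beta-arrestin recruitment detected by chemiluminescent reagent, read after 1 h at ambient temperature.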
# Sfp PPTase inh: inhibitors of Bacillus subtilis Sfp phosphopantetheinyl transferase; Biochemical Sfp PPTase activity, qHTS; Potency, µM, inactives show max response, negative = inhibition, most hits filed as inhibitors; 310,000 compounds, 3.5% hits; AID 1490; active means well fitted inhibition curve with a large enough effect; inconclusive means small, poorly fitted or top-dose-only effect, or another doubt; inactive means no such curve, though single readings can be large or run the other way;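 further: the enzyme is Sfp with the accession as filed and its product quenches rhodamine fluorescence; potency means the concentration at half of the fitted maximal effect; 0% = enzyme reaction without inhibitor and -100% = no enzyme wells; top concentration of the series not given in the record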
#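 Fluorescence-quenching assay: 15 nM Sfp-PPTase preincubated 15 min at room temperature with compound, then 5 uM rhodamine-CoA and 12.5 uM BHQ-2-labelled YbbR peptide added. Fluorescence (ex 525/em 598 nm) read at start and after 30 min; difference gives rate.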
# * = called active by the depositor; ? = inconclusive; · = not tested or not shown; [ ] = remark or other dose.
# The opening six records (preview)
# Order of results – gsp ag, ClpP mod, gsp antagonist, Menin MLL FP FL, PINK1 modulator, D2 agonist, Sfp PPTase inh
- Cc1c(C(=O)Nc2ccc(F)cc2)oc2ccc(S(=O)(=O)N3CCC4(CC3)OCCO4)cc12
    8%, -6.0%, ?, 11, 2.8%[38.3 µM], -1.9, 6%
- CSc1ccc(S(=O)(=O)N2CCC(C(=O)Nc3cccnc3)CC2)cc1
    23%, ·, -5%, 0.5, -2.6%, -2.3, 16%
- NC(=O)c1oc2ccccc2c1NC(=O)c1ccc([N+](=O)[O-])o1
    13%[15.4 µM], ·, -2%, 3.7, 0.9%, 6.3, 11%
- CCN(CC)S(=O)(=O)c1ccc2c(c1)c(=O)c(C(=O)NCCCN(C)c1ccccc1)cn2C
    ?, 5.1%, -17%, 2.6, 10.0%, -0.6, 5%
- COc1ccc(CN2CCNC(=O)C2CC(=O)NC2CCCC2)cc1OC (stereo unspecified)
    8%[15.4 µM], ?, 4%, ·, -0.6%, -6.9, 10%
- CCOC(=O)c1ccccc1NS(=O)(=O)c1cnn(CC)c1C
    -1%[15.4 µM], -6.8%, 10%, 0.0, 4.2%, 0.8, 6%

# Main list, repeating the preview:
# Order of results – gsp ag, ClpP mod, gsp antagonist, Menin MLL FP FL, PINK1 modulator, D2 agonist, Sfp PPTase inh
- Cc1c(C(=O)Nc2ccc(F)cc2)oc2ccc(S(=O)(=O)N3CCC4(CC3)OCCO4)cc12
    8%, -6.0%, ?, 11, 2.8%[38.3 µM], -1.9, 6%
- CSc1ccc(S(=O)(=O)N2CCC(C(=O)Nc3cccnc3)CC2)cc1
    23%, ·, -5%, 0.5, -2.6%, -2.3, 16%
- NC(=O)c1oc2ccccc2c1NC(=O)c1ccc([N+](=O)[O-])o1
    13%[15.4 µM], ·, -2%, 3.7, 0.9%, 6.3, 11%
- CCN(CC)S(=O)(=O)c1ccc2c(c1)c(=O)c(C(=O)NCCCN(C)c1ccccc1)cn2C
    ?, 5.1%, -17%, 2.6, 10.0%, -0.6, 5%
- COc1ccc(CN2CCNC(=O)C2CC(=O)NC2CCCC2)cc1OC (stereo unspecified)
    8%[15.4 µM], ?, 4%, ·, -0.6%, -6.9, 10%
- CCOC(=O)c1ccccc1NS(=O)(=O)c1cnn(CC)c1C
    -1%[15.4 µM], -6.8%, 10%, 0.0, 4.2%, 0.8, 6%
- O=C(CCc1ccccc1Cl)Nc1ccc(S(=O)(=O)N2CCOCC2)cc1
    -81%[inhibitor], ?, 7%, ·, 1.1%, 0.5, ·
- O=C(NCCCN1CCCC1=O)C1CCN(S(=O)(=O)c2ccc(Cl)cc2)CC1
    ?, -2.9%, 5%, ·, 0.5%, 4.0, ·
- CCCCOC(=O)c1ccc(NC(=O)c2ocnc2C)cc1
    4%, -0.7%, -15%, 2.2, 2.5%[38.3 µM], 1.9, 6%
- Cc1ccc(OCCNC(=O)CCNC(=O)c2ccc(Cl)cc2)cc1
    -1%, 3.7%, 7%, ·, 11%, -4.2, ·
- O=C(CCCCCCCCCCC(=O)NCc1cccnc1)NCc1cccnc1
    -12%, ·, 9%, 0.2, 0.1%, -2.1, 24%
- O=C1OC(c2cccs2)=N/C1=C\c1ccc(-c2cccc(Cl)c2)o1
    22%, -0.2%, -12%, 2.9, 22%[38.3 µM], -2.5, 79µM*
- CNC(=O)COC(=O)c1cc(-c2ccccc2)nn1-c1ccccc1
    -30%[inhibitor], 1.0%, -5%, 1.0, 1.1%, -4.0, 14%
- COc1ccc(-n2nc(C(=O)NCC(=O)N3CCN(c4ccccc4)CC3)c3ccccc3c2=O)cc1OC
    15%, ·, -4%, 3.8, -2.4%, 1.7, 26%
- CC(=O)c1ccc(NC(=O)CN(c2c(C)cccc2C)S(C)(=O)=O)cc1
    -3%, 0.3%, -2%, 0.2, -0.4%, 4.1, 12%

# Random excerpt: 4 entries already listed, in no set order.
# Order of results – gsp ag, ClpP mod, gsp antagonist, Menin MLL FP FL, PINK1 modulator, D2 agonist, Sfp PPTase inh
- CCCCOC(=O)c1ccc(NC(=O)c2ocnc2C)cc1
    4%, -0.7%, -15%, 2.2, 2.5%[38.3 µM], 1.9, 6%
- O=C1OC(c2cccs2)=N/C1=C\c1ccc(-c2cccc(Cl)c2)o1
    22%, -0.2%, -12%, 2.9, 22%[38.3 µM], -2.5, 79µM*
- O=C(NCCCN1CCCC1=O)C1CCN(S(=O)(=O)c2ccc(Cl)cc2)CC1
    ?, -2.9%, 5%, ·, 0.5%, 4.0, ·
- CCN(CC)S(=O)(=O)c1ccc2c(c1)c(=O)c(C(=O)NCCCN(C)c1ccccc1)cn2C
    ?, 5.1%, -17%, 2.6, 10.0%, -0.6, 5%

# New compounds follow:
# Order of results – gsp ag, ClpP mod, gsp antagonist, Menin MLL FP FL, PINK1 modulator, D2 agonist, Sfp PPTase inh
- Cc1ccc(NC(=O)c2ccc(OCC3CCCO3)cc2)cc1Cl (stereo unspecified)
    -19%, 0.9%, ·, ·, 2.4%, -3.8, ·
- CC1CCN(C2=NC(=O)/C(=C/c3cn[nH]c3-c3ccccc3)S2)CC1
    -26%, -7.1%, 3%, -2.4, 5.6%, -0.7, -10%
- CCOCCOc1cccc(C(=O)NC(c2ccccc2)C(C)C)c1 (stereo unspecified)
    -2%, -1.7%, 6%, 3.8, 1.6%, -2.9, 19%
- CCN(C(=O)Cn1c([N+](=O)[O-])cnc1C)c1ccccc1
    3%, 1.1%, 4%, 2.1, 0.2%, 0.3, 12%
- O=C(c1ccccc1)c1ccc(O)c(O)c1O
    ·, 0.7%, -11%, ·, 2.2%, ?, ·
- CC1CCCC(CC(=O)O)(CC(=O)O)C1 (stereo unspecified)
    3%, ·, 11%, -7.0, -0.3%, -2.7, 14%
- COc1ccc(-n2ccc3ccccc32)cc1
    6%, -6.2%, -14%, -0.4, 8.8%, -4.1, -7%
- O=C(COC(=O)c1ccccc1Br)NCC1CCCO1 (stereo unspecified)
    12%, -1.0%, 9%, ·, -0.4%, -1.5, ·
- Cc1cccc(C)c1N1C(=O)c2ccccc2C1=O
    -4%, -1.6%, -2%, 0.9, 0.4%[38.3 µM], -2.2, 22%
- CCOC(=O)c1sc(N2C(=O)C(O)=C(C(=O)c3ccco3)C2c2ccc(C)o2)nc1C (stereo unspecified)
    4%, ·, ?, 19, -3.5%, -0.9, 40µM*
- CCn1c(SCC(=O)Nc2cccc(NC(=O)c3cccs3)c2)nnc1-c1ccncc1
    -51%[inhibitor], -4.5%, -6%, 3.6, 1.0%, -0.8, 12%
- Nc1nc(NCc2ccco2)nc(N2CCN(Cc3ccccc3)CC2)c1[N+](=O)[O-]
    -1%[15.4 µM], ·, -5%, 0.2, 0.0%, -2.9, 1%
- Cc1ccc(S(=O)(=O)N(CC(=O)N2CCC(C)CC2)c2ccccc2)cc1
    -4%[15.4 µM], ·, -6%, ?, 1.1%, -2.2, ?
- O=C(O)c1ccc(N=Nc2c(O)[nH]c3ccc(Br)cc23)cc1
    11%, -1.0%, -5%, ?, 0.7%, -2.5, 10µM*
- O=C(Nc1nc2c(Cl)ccc(Cl)c2s1)c1ccco1
    ?, -25%, 6%, 2.3, 0.5%, -7.7, -3%
- O=C(NCC1CCCO1)c1ccc(NC(=O)c2cc(F)c(F)cc2Cl)cc1 (stereo unspecified)
    21%, -1.4%, 8%, -1.2, 0.4%, 0.7, 11%
- CCCCNC(=O)c1c[nH]c2ccc(S(=O)(=O)N3CCOCC3)cc2c1=O
    -7%[15.4 µM], ·, -15%, -0.3, 2.4%, 5.4, 16%
- O=C(CSc1nc2cc(Cl)ccc2s1)NC(=O)NCc1ccco1
    -13%, -2.6%, -2%, -0.7, ·, -3.1, 89µM*
- CSCCOC(=O)C1=C(C)NC(=O)NC1c1ccc2c(c1)OCO2 (stereo unspecified)
    ?, 1.4%, -1%, -6.8, 0.3%, 2.9, 11%
- COC(=O)[C@]1(Cc2ccccc2)N[C@H](c2ccc(-c3ccccc3)cc2)[C@@H]2C(=O)N(C)C(=O)[C@@H]21
    ·, -22%, -23%, ·, 1.9%, -2.0, ·
- CN(C)c1ccc(/C=N/NC(=O)C2CC2c2ccccc2)cc1 (stereo unspecified)
    9%, 4.6%, -23%, 2.0, 0.5%, 0.8, 1%
- COc1ccc(S(=O)(=O)N2CCCCC2)cc1NC(=O)CNc1ccccc1C(C)=O
    14%, -9.5%, ?, ·, -1.1%, -2.8, ·
- Cc1[nH]c2ccccc2c1C(=O)C(=O)NCc1nnnn1-c1cccc(F)c1
    -84%[inhibitor], 1.8%, ·, ·, 0.6%, 5.7, ·
- CC(C)(C)Cc1c(-c2ccccc2)nc2ccc(Cl)cn12
    -26%, -9.2%, ·, ·, ?, -10, ·
- COc1ccc2c(c1)SCC(=O)N2C
    -48%[inhibitor], -1.0%, 4%, 1.3, 0.8%[38.3 µM], 1.0, 8%
- COc1ccccc1CC(=O)Nc1cc(OC)c(NC(=O)c2ccccc2)cc1OC
    25%, ·, ?, -2.8, 0.3%, 5.5, -23%
- CC1CCCCC1NC(=O)c1ccc(CNc2c(N3CCCC3)c(=O)c2=O)cc1 (stereo unspecified)
    27%, 2.9%, 8%, 0.9, 0.6%, -9.4, 9%
- O=C(NC(c1ccc(F)cc1)c1ccc2ccccc2n1)C1CCN(CCOc2ccc(F)cc2)CC1 (stereo unspecified)
    ·, -18%, ·, ·, -0.1%, -3.0, ·
- CC(=O)Nc1cccc(OCc2c(F)cccc2Cl)c1
    -25%, ·, -6%, -3.7, 4.6%, -3.6, 7%
- CC(=O)Nc1ccc(-c2ccc3nnc(C)n3n2)cc1
    ?, ·, 2%, 1.7, 5.5%, 6.7, 16%
- Cc1ccccc1-c1nnc(SCC(=O)N(CC(C)C)c2c(N)n(CC(C)C)c(=O)[nH]c2=O)n1C
    3%[15.4 µM], ·, 1%, 1.8, -1.0%, -18, 14%
- C#CCOCCOCCOCCNc1nc(N2CCOCC2)nc(N2CCN(C(=O)[C@H](CCCCN)n3cc([C@@H](N)CO)nn3)CC2)n1
    5%, -0.8%, 8%, -7.2, -0.6%, -1.7, -11%
